Screens deposited in PubChem BioAssay by several laboratories.
Ecoli rRNA inh: inhibitors of bacterial rRNA selective over humanized ribosomes | AID 720706 | 350,000 tested, 1.6% active | GFP signal change (wild-type ribosome), % (concentration not given with the values) | E. coli WT GFP vs humanized-ribosome RFP mutants, fluorescence, 24 h; stronger effect = lower value; DMSO median 0, no signal -100;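 active = significant combined selectivity score with lowered wild-type GFP, culture density cut under 30%, mutant RFP and density less affected; inactive = any of these conditions unmet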; also: one replicate is shown; some compounds called inactive have numbers as strong as hits
Ecoli growth: inhibitors of Escherichia coli growth. 330,000 tested, 0.21% active. OD600 absorbance (test concentration not listed). OD600, 23 h; stronger effect = lower value;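 active = OD600 absorbance below the run mean of sample wells minus 3.6 SD, in any replicate, cut at about 0.56 in these data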;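 also: stock transfer was 300 nL into about 60 µL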
MLL AF4-AF9 inh: MLL-AF4/AF9 protein interaction inhibition. inhibition, % at 10 µM. AlphaScreen, biotin-AF4 peptide binding to FLAG-AF9. 350,000 tested, 0.47% active. AID 651704;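 active = every replicate reaching a set inhibition limit, whatever the replicate mean, cut at about 25% in these data; inconclusive = mean inhibition reaches that limit but some replicates miss it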;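 also: 0% = plate neutral control median and 100% = total signal loss; the record names both 10 and 1 µM as test concentration; the first replicate is given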
Target sequence (P42568 whole entry, looked up): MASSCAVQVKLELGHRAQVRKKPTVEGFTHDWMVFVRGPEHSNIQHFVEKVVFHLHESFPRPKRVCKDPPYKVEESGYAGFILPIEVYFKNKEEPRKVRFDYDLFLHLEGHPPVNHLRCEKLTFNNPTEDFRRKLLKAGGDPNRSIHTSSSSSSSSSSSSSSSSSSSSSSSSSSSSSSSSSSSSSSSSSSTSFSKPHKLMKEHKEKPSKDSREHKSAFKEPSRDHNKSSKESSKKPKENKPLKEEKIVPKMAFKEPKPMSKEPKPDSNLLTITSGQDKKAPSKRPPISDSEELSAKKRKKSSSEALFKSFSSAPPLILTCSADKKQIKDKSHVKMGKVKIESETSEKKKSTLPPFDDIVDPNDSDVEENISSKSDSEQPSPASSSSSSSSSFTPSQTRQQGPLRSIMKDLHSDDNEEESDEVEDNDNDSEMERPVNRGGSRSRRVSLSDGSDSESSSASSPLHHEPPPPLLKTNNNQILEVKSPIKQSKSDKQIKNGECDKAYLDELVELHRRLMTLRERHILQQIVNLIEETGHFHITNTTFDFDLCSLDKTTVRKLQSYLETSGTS
HNF4A DNA FP: change in binding of human HNF4 alpha to DNA. AID 1224865. 360,000 tested, 0.3% active. P41235. activity change, % at 10 µM. HNF4a-FITC DNA binding, fluorescence polarization, 1 h; in the data active = activity change above about 30%, passing the limit was not always enough;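 also: controls were the assay level and a saturating level of protein; the project sought stronger binding though the title names inhibitors; some compounds called inactive have numbers as strong as hits; positive values seem to mean higher polarization but the record does not say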
ALR inh: human ALR oxidase inhibition via reduced H2O2; 290,000 tested, 3.8% active; purified ALR, DTT oxidation, H2O2 HRP-luminol luminescence; inhibition, % (test concentration not listed);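 active = mean and each replicate at 75% or more; inconclusive = only one of the two met; inactive = neither met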;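 also: stock transfer was 7.5 nL into about 7.5 µL; 0% = neutral wells and 100% = wells with inactivated enzyme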
Target sequence (P55789 whole entry, looked up): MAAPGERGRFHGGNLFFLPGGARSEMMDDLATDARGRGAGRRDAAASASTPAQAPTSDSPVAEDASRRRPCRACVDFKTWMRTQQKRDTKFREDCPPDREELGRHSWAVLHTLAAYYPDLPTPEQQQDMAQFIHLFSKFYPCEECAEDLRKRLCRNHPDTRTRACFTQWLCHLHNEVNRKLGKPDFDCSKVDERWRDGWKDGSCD
Vif A3G: HIV-1 Vif–A3G interaction blockers – biochemical, TR-FRET, GST-Vif 1-94, biotin-A3G peptide, dose response retest, primary screen (AID 1117319) | inhibition, %, or IC50 in µM where a hit was titrated | TR-FRET GST-Vif / biotin-A3G peptide binding; higher % means a stronger effect; test concentration not given here; strong numbers were not always called active | 260,000 tested, 0.57% active;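 active = above the screen mean plus three standard deviations and confirmed in dose response; inconclusive = results disagree or hit not tested in dose response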;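 also: Vif residues 1-94 fused to GST binding biotinylated APOBEC3G peptide 110-148; 0% = full assay without inhibitor and 100% = GST in place of GST-Vif; retest series ran down from 100 µM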
FGF22 binding: FGF22 (human) thermal shift binding. Q9HCT0. recombinant FGF22 thermal shift, SYPRO orange fluorescence; percent of sucrose octasulfate shift, DMSO zero. calls only at 9.99 µM. 340,000 tested, 1.5% active. AID 651658;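 active = melting point raised past a set limit in the mean and every replicate; inconclusive = no clear call; three in four hits are not shown here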
Target sequence (Q9HCT0 whole entry, looked up): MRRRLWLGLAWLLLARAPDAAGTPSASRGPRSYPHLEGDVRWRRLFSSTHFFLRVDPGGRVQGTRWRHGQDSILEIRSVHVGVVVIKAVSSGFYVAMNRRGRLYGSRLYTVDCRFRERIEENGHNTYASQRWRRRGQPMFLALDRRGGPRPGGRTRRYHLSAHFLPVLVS
Ecoli rRNA inh OD600: also measured in Ecoli rRNA inh; calls as there; OD600 change, %; measured here: OD600 growth;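 optical density of the mix in the first replicate; 0 = DMSO median and -100 = no signal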
Ecoli rRNA inh RFP: further read-out of Ecoli rRNA inh, marked with its call; RFP signal change, %; measured here: RFP humanized mutant strains;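 first replicate; 0 = DMSO median and -100 = no signal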
An asterisk follows results filed as active; i = inactive; ? = inconclusive; · = no result given; + = active, no number. A portion of the library. The share of hits here may be higher or lower than overall.

SMILES	Ecoli rRNA inh	Ecoli rRNA inh OD600	Ecoli rRNA inh RFP	Ecoli growth	MLL AF4-AF9 inh	HNF4A DNA FP	ALR inh	Vif A3G	FGF22 binding
C/C(=N\Nc1ccccn1)c1ccc(S(=O)(=O)NCc2ccco2)cc1	·	·	·	·	·	0.1	-8	-4%	·
CC(C)=CCNc1ncnc2c1c(C#N)cn2C1OC(CO)C(O)C1O (centres undefined)	-4	5	-1.1	·	-0.7	2.6	·	-4%	i
COC(=O)c1sccc1-c1ccc(C(=O)Nc2cccc(Cl)c2)o1	·	·	·	0.69	·	4.7	2	-4%	·
C=C(Br)Cn1c(CC(C)C)nc2ccccc21	·	·	·	0.65	·	1.5	-1	-3%	·
COc1ccccc1C(=O)NC(CCSC)C(=O)NNC(=O)C(C)Oc1ccccc1F (centres undefined)	0	5	-1.7	0.67	-0.4	-2.7	3	-4%	i
CN(C(=S)Nc1cccnc1)c1ccc(O)cc1	18	13	9.1	0.68	-2.6	0.4	60	1.9µM*	i
CC(C)CNC(=O)COC(=O)c1ccc(Cl)c(S(=O)(=O)N2CCc3ccccc32)c1	11	8	-0.5	0.68	-0.3	1.7	-1	·	i
C/C(=N\NC(=O)c1cc2c(s1)CCC(C)C2)c1ccc[nH]1 (centres undefined)	1	-2	0.5	·	1.6	10	·	-6%	i
N#CCSc1ncnc2ccccc12	4	4	-0.3	0.63	0.3	6.4	·	2%	i
CCCSc1nnc(CSc2ncccn2)n1C	-15	-4	-0.5	0.66	-2.3	2.7	1	-6%	i
O=C(Nc1ccc2c(c1)OCCO2)C(c1ccnc2ccccc12)N1CCC(Cc2ccccc2)CC1 (centres undefined)	22	14	7.5	·	-0.3	0.5	·	·	i
CC1CCN(C(=O)NC(=O)c2ccccc2)CC1	9	11	-1.6	0.72	2.3	2.5	-11	·	i
Cc1ccc(-c2cc(N)n(-c3ccc(F)cc3)n2)cc1	4	-6	-2.9	0.7	0.9	-4.4	·	·	i
O=C(Nc1nnc([C@H]2C[C@H](O)[C@@H](CO)O2)s1)NC1CCCCC1	10	8	0.4	·	0.5	3.2	·	·	i
CCOC(=O)N1CCN(C(=O)CCCCCn2c(=S)[nH]c3ccsc3c2=O)CC1	-3	-8	2.3	0.67	-2.0	-3.6	93*	1%	+
Cc1c(C(=O)O)oc2ccc(S(=O)(=O)NCc3ccc4c(c3)OCO4)cc12	·	·	·	0.64	·	0.5	31	2%	·
Cc1cc(C(F)(F)F)nn1CC(=O)NCc1cccs1	5	7	-0.8	0.67	3.1	-0.7	-6	6%	i
Cc1ccc(C(c2nnnn2CC2CCCO2)N2CCN(C(=O)c3ccco3)CC2)cc1 (centres undefined)	·	·	·	0.79	·	0.6	-14	29%	·
COc1ccc(C2=NO[C@@H]3[C@@H]4C[C@@H]([C@H]5C(=O)N(C)C(=O)[C@@H]45)[C@H]23)cc1	3	3	-2.3	0.65	0.7	2.6	-34	·	i
CCCCn1c(=O)[nH]c(=O)c2c1nc(-c1cc(Br)ccc1OC)n2C	5	9	-3.0	0.68	0.7	-3.3	-9	-23%	i
O=C(CSc1nnc(-c2cccnc2)n1-c1ccccc1)Nc1ccccc1	·	·	·	0.69	·	-1.6	-1	-17%	·
O=C(O)C1Nc2c(Cl)cc(Cl)cc2C2C=CCC12 (centres undefined)	·	·	·	0.67	·	-58	48	64%	·
CC(C)N(C(=O)[C@H]1CC(CC(=O)NCc2cccc(C(F)(F)F)c2)C(=O)N2CCc3c([nH]c4ccccc34)[C@]12C)C(C)C (some centres undefined)	8	5	0.7	0.69	4.8	0.6	·	2%	i
CC(=O)N1CCN(CC(=O)NC(=O)Nc2ccc3c(c2)OCCO3)CC1	11	11	-1.7	0.7	-2.6	1.6	-4	·	i
O=C(Nc1ccc(Cc2ccncc2)cc1)c1ccco1	·	·	·	0.68	·	3.6	-11	0%	·
CC(C)OC(=O)c1ccc(NC(=O)C2C3CC4OC(=O)C2C4C3)cc1 (centres undefined)	·	·	·	0.72	·	-0.3	-1	17%	·
CCC(C)[C@H](NC(=O)Nc1cccc(Cl)c1)C(=O)O (some centres undefined)	·	·	·	·	·	-3.1	-27	15%	·
CN(C)S(=O)(=O)c1ccc(NC(=O)COC(=O)C2CC3CCCC(C2)C3=O)cc1 (centres undefined)	6	4	0.5	0.67	-1.1	1.7	2	5%	i
N#C[C@H]1[C@@H](c2ccc(C3=CCCC3)cc2)[C@@H](CO)N1S(=O)(=O)c1ccccc1	6	6	-0.2	·	-1.0	·	·	·	i
O=C(Nc1ccc2c(c1)OCO2)c1ccc(N2C(=O)c3ccccc3C2=O)cc1	22	18	7.2	0.71	-2.2	-3.5	-4	·	i

4 entries from above, with two lines to a compound.
Values run as follows: Ecoli rRNA inh, Ecoli rRNA inh OD600, Ecoli rRNA inh RFP, Ecoli growth, MLL AF4-AF9 inh, HNF4A DNA FP, ALR inh, Vif A3G, FGF22 binding
- O=C(O)C1Nc2c(Cl)cc(Cl)cc2C2C=CCC12 (centres undefined)
    ·, ·, ·, 0.67, ·, -58, 48, 64%, ·
- CC(C)N(C(=O)[C@H]1CC(CC(=O)NCc2cccc(C(F)(F)F)c2)C(=O)N2CCc3c([nH]c4ccccc34)[C@]12C)C(C)C (some centres undefined)
    8, 5, 0.7, 0.69, 4.8, 0.6, ·, 2%, i
- CC(=O)N1CCN(CC(=O)NC(=O)Nc2ccc3c(c2)OCCO3)CC1
    11, 11, -1.7, 0.7, -2.6, 1.6, -4, ·, i
- O=C(Nc1ccc(Cc2ccncc2)cc1)c1ccco1
    ·, ·, ·, 0.68, ·, 3.6, -11, 0%, ·

More entries.
SMILES	Ecoli rRNA inh	Ecoli rRNA inh OD600	Ecoli rRNA inh RFP	Ecoli growth	MLL AF4-AF9 inh	HNF4A DNA FP	ALR inh	Vif A3G	FGF22 binding
O=C(Nc1ccc(N2CCOCC2)cc1)C1CC(=O)N(c2ccc(F)cc2)C1 (centres undefined)	-3	4	-12	0.69	1.2	3.0	6	5%	i
CCN(CC)CCCN(C)C(=O)Cn1nc(Cc2ccncc2)c2ccccc2c1=O	14	11	3.2	0.68	-1.1	4.3	-13	-2%	i
CC12CCC(=O)N1C(C(=O)N1CCN(S(=O)(=O)c3ccc(F)c(F)c3)CC1)CS2 (centres undefined)	8	9	0.5	0.69	2.5	3.5	0	2%	i
CC(=O)Nc1ccc(S(=O)(=O)NCc2ccc3c(c2)cc(C)n3C)cc1	-4	9	17	0.78	12	-14	-10	-8%	i
CC(C)n1nnnc1SCC(=O)Nc1ccc2c(c1)OCCO2	-7	-4	-4.0	0.69	-3.1	·	45	·	i
Cc1nc(C)c2c(=O)cc(-c3ccccc3)[nH]c2n1	-6	6	-1.6	0.71	2.4	5.4	-4	-8%	i
COc1ccc(S(=O)(=O)Nc2cccc3c2O[C@@H](CN(C)Cc2ccc(-c4ccccc4)cc2)[C@H](C)CN([C@@H](C)CO)C3=O)cc1	-1	5	-1.4	·	-0.7	·	·	·	i
COc1cc2c(cc1OC)C(COc1ccc([N+](=O)[O-])cc1)N(C(C)=O)CC2 (centres undefined)	12	2	-2.1	0.67	4.3	0.3	·	4%	i
COc1ccccc1C(=O)Nc1ccc(S(=O)(=O)Nc2nccs2)cc1	-3	-6	4.2	0.66	1.6	0.1	1	·	i
CC1CCCN(S(=O)(=O)c2cccc(C(=O)OCC(=O)N(C)Cc3c(F)cccc3Cl)c2)C1 (centres undefined)	-1	-11	7.3	0.74	-2.0	-3.3	·	·	i
O=C(CSc1nc(=O)n(CCCN2CCOCC2)c2c1CCC2)Nc1ccc([N+](=O)[O-])cc1	1	11	0.1	0.71	-8.5	-1.3	98*	5%	i
COc1ccc(S(=O)(=O)Nc2cccc(Cl)c2)cc1OC	·	·	·	0.7	·	0.3	-2	3%	·
Cc1ccc(S(=O)(=O)Nc2ccc3c(c2)C(=O)N([C@H](C)CO)C[C@H](C)[C@H](CN(C)S(=O)(=O)c2cn(C)cn2)OCCCC[C@@H](C)O3)cc1	2	6	-3.7	·	0.6	·	·	·	i
CN(C)S(=O)(=O)N1CCN(CC(=O)Nc2ccc(Br)cc2)CC1	-8	-4	-1.9	0.69	-3.3	-4.0	-10	·	i
Cc1nn(CC(=O)NCc2cc3ccccc3[nH]2)c(C)c1[N+](=O)[O-]	9	5	-1.2	0.67	9.0	0.9	-8	6%	i
COc1ccc([N+](=O)[O-])cc1NC(=O)C(C)OC(=O)c1ccccn1 (centres undefined)	6	8	-0.5	0.67	-0.5	-2.1	-17	-1%	i
COc1cccc(C#Cc2ccc3c(c2)[C@@H]2[C@@H](CCN2C(=O)c2ccccc2F)[C@@H](CO)N3C)c1	-5	7	2.6	·	1.8	·	·	·	i
O=S(=O)(Cc1ccccc1)N1CCCCN2[C@H](C1)[C@H](c1ccc(-c3ccc(F)cc3)cc1)[C@@H]2CO	-14	-49	18	·	-1.5	·	·	·	i
CN(Cc1ccccc1)S(=O)(=O)c1ccc(Cl)c(C(=O)NCCCN2CCCC2=O)c1	0	-2	-4.4	0.69	1.1	0.4	·	-1%	i
COc1ccc(NC(=O)C[C@H]2C(=O)N(Cc3ccccc3)C[C@@H]2C)cc1	12	7	-1.5	·	-2.4	-2.3	·	1%	i
Cc1cc(Cl)ccc1OCC(=O)NN1C(=O)C2C3C=CC(C3)C2C1=O (centres undefined)	6	10	1.4	0.68	0.8	-2.4	-4	4%	i
COc1ccc(OC)c(NC(=O)c2cccc(S(=O)(=O)N(Cc3ccccc3)c3ccccc3OC)c2)c1	·	·	·	0.71	·	4.2	-9	?	·
C[C@@H]1CCCCO[C@@H](CN(C)Cc2ccncc2)[C@H](C)CN([C@H](C)CO)C(=O)c2cc(NC(=O)c3ccccc3)ccc2O1	-4	-6	0.6	·	-1.5	·	·	·	i
C[C@@H]1CN([C@@H](C)CO)S(=O)(=O)c2ccc(C#CCN(C)C)cc2O[C@@H]1CN(C)Cc1ccc(F)cc1	-4	-9	1.1	·	13	·	·	·	i
C[C@H](CO)N1C[C@H](C)[C@H](CN(C)Cc2ccc(Oc3ccccc3)cc2)Oc2ccc(NC(=O)C3CC3)cc2CC1=O	4	-25	5.1	·	6.1	·	·	·	i
Cc1nn(C)cc1S(=O)(=O)NCc1ccccc1Cl	6	11	0.4	0.71	-1.8	-0.7	-3	5%	i
O=C(CSc1ccccc1)NCc1cccnc1	·	·	·	0.7	·	2.3	-12	1%	·
COc1ccc(NC(=O)Cn2nnc(-c3ccccc3)c2COc2ccc3ccccc3c2)cn1	0	-3	5.1	·	-2.2	0.8	·	·	i
CCOc1cc(CNn2cnnc2SCC(=O)NC(C)(C)C)ccc1OCC(=O)NC(C)(C)C	9	2	-1.5	0.64	-1.2	0.3	-2	2%	i
COc1ccc(NC(=O)Nc2ccc3c(c2)C(=O)N([C@@H](C)CO)C[C@@H](C)[C@H](CN(C)Cc2ccc(-c4ccccc4)cc2)O3)cc1	-3	-4	-1.1	·	2.8	·	·	·	i
O=C(C[C@@H]1C[C@H]2c3cc(NC(=O)CC4CC4)ccc3O[C@H]2[C@@H](CO)O1)NCCN1CCCCC1	5	7	-3.7	·	1.0	·	·	·	i
Cc1cccc(C(=O)O/N=C(\N)Cc2cccc3ccccc23)c1	·	·	·	0.67	·	4.7	-5	-4%	·
O=C(NC(Cc1c[nH]c2ccccc12)C(=O)O)OCC1c2ccccc2-c2ccccc21 (centres undefined)	-23	-30	-2.3	·	2.3	4.3	·	·	i
COc1cccc(NC(=O)CSc2nncn2-c2ccccn2)c1	·	·	·	0.71	·	3.0	6	22%	·
